RanGTP-Imp inh: disruptors of Ran-importin-beta complex formation – biochemical, FRET, CFP-Ran, YFP-importin-beta, homogeneous, primary screen; cell-free CFP-Ran/YFP-importin-beta FRET ratio; inhibition, % (concentration not given with the values); 1.1% of 300,000 active; AID 2216;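 active = most replicates above 15%; inconclusive = exactly half above 15%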;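 note: 0% = DMSO wells and 100% = Ran loaded with GDP instead of GTP; wells of about 40 µL received 100 nL stock; the first replicate is given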
LANA-H2B inh: blocks KSHV LANA binding to histone H2A/H2B; AID 2629; inhibition, % (concentration not given with the values); Q9QR71; cell-free LANA-H2A/H2B peptide, fluorescence polarization; 0.6% of 320,000 active; in the data active = inhibition mostly above about 10%, no sharp cut-off; inactive = mostly below about 6.7%;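 note: stock transfer was 7.5 nL into about 10 µL; 0% = median of vehicle wells and 100% = median of positive control wells; one replicate is shown; the record names a cut of 25% in any replicate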
Vif TR-FRET: inhibitors of Vif binding to APOBEC3G peptide, primary screen, biochemical, TR-FRET, GST-Vif 1-94, biotin-A3G peptide, dose response retest (AID 1117319); TR-FRET GST-Vif / biotin-A3G peptide binding; higher % means a stronger effect; test concentration not given here; strong numbers were not always called active; inhibition, %, or IC50 in µM where a hit was titrated; 0.57% of 260,000 active;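 active = above the screen mean plus three standard deviations and confirmed in dose response; inconclusive = results disagree or hit not tested in dose response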;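 note: Vif residues 1-94 fused to GST binding biotinylated APOBEC3G peptide 110-148; 0% = full assay without inhibitor and 100% = GST in place of GST-Vif; retest series ran down from 100 µM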
Calb FLC: affects C. albicans growth with fluconazole; growth inhibition, % (no concentration beside the values); AID 1979; C. albicans CaCi-2 (fluconazole-resistant clinical isolate) + fluconazole, Alamar Blue growth, 48 h; 0.57% of 300,000 active;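 active = most replicates above 75%; inconclusive = exactly half above 75%; inactive = most below 75%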;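 note: all wells also contain fluconazole at 8 µg/ml as a sub-toxic cotreatment; 0% = median of DMSO wells and 100% = median of geldanamycin control wells; wells of about 8 µL received 7.5 nL stock; the first replicate is given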
Beta2AR agonist: human beta-2 adrenergic receptor agonism by FAP; P07550; Am2.2-beta2AR cells, FAP receptor internalization, flow cytometry; reference of the scale not given here; response, % (concentration not given with the values); 0.43% of 340,000 active; AID 504454;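 active = response above a set limit, near 3 SD of response in nonfluorescent compounds, cut at about 42% in these data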;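 note: stock transfer was 100 nL into about 11 µL; a reference agonist was the positive control; negative values mostly stem from fluorescent compounds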
Target sequence (P07550 whole entry, looked up): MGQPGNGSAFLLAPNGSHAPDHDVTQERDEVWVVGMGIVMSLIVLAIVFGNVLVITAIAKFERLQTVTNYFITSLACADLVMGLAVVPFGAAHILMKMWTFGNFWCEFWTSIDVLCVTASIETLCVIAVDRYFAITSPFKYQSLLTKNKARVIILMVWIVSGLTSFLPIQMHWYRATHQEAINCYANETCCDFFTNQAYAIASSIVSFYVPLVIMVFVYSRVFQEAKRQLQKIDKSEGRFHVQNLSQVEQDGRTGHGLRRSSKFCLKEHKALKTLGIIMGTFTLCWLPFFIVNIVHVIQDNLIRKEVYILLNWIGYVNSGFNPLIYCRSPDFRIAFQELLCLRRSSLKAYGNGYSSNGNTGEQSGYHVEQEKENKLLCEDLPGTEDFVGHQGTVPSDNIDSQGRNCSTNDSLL
HNF4A DNA FP: change in binding of human HNF4 alpha to DNA; 0.3% of 360,000 active; activity change, % at 10 µM; P41235; AID 1224865; HNF4a-FITC DNA binding, fluorescence polarization, 1 h; in the data active = activity change above about 30%, passing the limit was not always enough;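 note: controls were the assay level and a saturating level of protein; the project sought stronger binding though the title names inhibitors; some compounds called inactive have numbers as strong as hits; positive values seem to mean higher polarization but the record does not say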
Target sequence (P41235 whole entry, looked up): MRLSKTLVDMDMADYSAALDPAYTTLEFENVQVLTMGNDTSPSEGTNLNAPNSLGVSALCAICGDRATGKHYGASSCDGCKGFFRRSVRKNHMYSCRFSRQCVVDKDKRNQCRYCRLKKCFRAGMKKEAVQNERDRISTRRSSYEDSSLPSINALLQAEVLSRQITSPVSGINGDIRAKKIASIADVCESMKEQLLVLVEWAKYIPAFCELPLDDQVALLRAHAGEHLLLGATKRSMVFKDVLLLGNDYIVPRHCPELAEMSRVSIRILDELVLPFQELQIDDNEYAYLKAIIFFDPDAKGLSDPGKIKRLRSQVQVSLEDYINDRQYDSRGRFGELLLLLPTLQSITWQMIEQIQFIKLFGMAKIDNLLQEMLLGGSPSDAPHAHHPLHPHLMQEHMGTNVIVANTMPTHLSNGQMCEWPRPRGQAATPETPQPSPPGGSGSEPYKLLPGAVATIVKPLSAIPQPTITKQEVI
ALR H2O2 inh: blocks human ALR sulfhydryl oxidase activity. P55789. purified ALR, DTT oxidation, H2O2 HRP-luminol luminescence. inhibition, % (test concentration not listed). 3.8% of 290,000 active;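 active = mean and each replicate at 75% or more; inconclusive = only one of the two met; inactive = neither met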;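 note: stock transfer was 7.5 nL into about 7.5 µL; 0% = neutral wells and 100% = wells with inactivated enzyme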
Target sequence (P55789 whole entry, looked up): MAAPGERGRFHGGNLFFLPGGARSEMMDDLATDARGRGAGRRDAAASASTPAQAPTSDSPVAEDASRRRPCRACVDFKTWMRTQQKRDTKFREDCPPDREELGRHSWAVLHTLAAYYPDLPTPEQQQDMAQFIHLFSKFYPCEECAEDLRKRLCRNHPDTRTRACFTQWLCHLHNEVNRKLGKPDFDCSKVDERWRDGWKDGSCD
* marks the source's active call; other numbers are inactive results.

What do the screens show for `CCOc1ccc(C2C3=C(CCCC3=O)OC(N)=C2[N+](=O)[O-])cc1` (centres undefined)?
RanGTP-Imp inh: -0.8; LANA-H2B inh: 0.6; Vif TR-FRET: -12.9%; Calb FLC: 4.0; Beta2AR agonist: 5.3; HNF4A DNA FP: 2.4; ALR H2O2 inh: 3.3

How did O=C1C=C(N2CCOCC2)CO1 do in these assays?
RanGTP-Imp inh: -1.4; LANA-H2B inh: -0.2; Calb FLC: 7.9; Beta2AR agonist: -1.6; HNF4A DNA FP: -1.9; ALR H2O2 inh: -19.5

What do the screens show for `COc1ccc(C2=NN(C(=O)CSc3nc(=O)n4ccc(C)cc4n3)C(c3ccc(C)cc3)C2)cc1` (centres undefined)?
RanGTP-Imp inh: 3.5; LANA-H2B inh: -2.6; Vif TR-FRET: -21.0%; Calb FLC: 0.5; Beta2AR agonist: 1.5; HNF4A DNA FP: 1.2

Results for O=C(C1CCCCN1S(=O)(=O)c1ccccc1[N+](=O)[O-])N1CCCCC1 (centres undefined) ?
RanGTP-Imp inh: 5.8; LANA-H2B inh: 1.1; Vif TR-FRET: 3.2%; Calb FLC: 2.3; Beta2AR agonist: -6.1; HNF4A DNA FP: 4.1

Results for CC(=O)c1ccc(NC(=S)Nc2cccc(Cl)c2C)cc1 ?
RanGTP-Imp inh: -1.1; LANA-H2B inh: -2.1; Vif TR-FRET: -9.4%; Calb FLC: inconclusive; Beta2AR agonist: 1.5; HNF4A DNA FP: -1.6

How did CCN(CC)S(=O)(=O)c1ccc(OC)c(NC(=O)CCc2c(C)noc2C)c1 do in these assays?
Vif TR-FRET: -13.3%; Beta2AR agonist: -3.6; HNF4A DNA FP: 4.5

How did Cn1c(=O)c(=O)n(C)c2cc(N3CCOCC3)c(NS(=O)(=O)c3ccc(F)c(Cl)c3)cc21 do in these assays?
RanGTP-Imp inh: 10.6; LANA-H2B inh: -5.2; Vif TR-FRET: 0.9%; Calb FLC: -6.5; Beta2AR agonist: -2.2; HNF4A DNA FP: -2.8; ALR H2O2 inh: 16.7

Results for CCOC(=O)c1cc(C(=O)c2ccccc2O)cn2c(=O)c3c(C)c(C)sc3nc12 ?
RanGTP-Imp inh: -4.4; LANA-H2B inh: 0.1; Vif TR-FRET: -9.2%; Calb FLC: 34.3; ALR H2O2 inh: 4.2

What do the screens show for `COc1cc(CN2CCCC(C(=O)N3CCc4ccccc4C3)C2)cc(OC)c1OC` (centres undefined)?
RanGTP-Imp inh: -2.1; LANA-H2B inh: -1.9; Beta2AR agonist: -5.5; HNF4A DNA FP: 10.7; ALR H2O2 inh: -2.8

How did CCOC(=O)N1CCN(C(=O)COc2ccc3oc4c(c3c2)CCCC4)CC1 do in these assays?
RanGTP-Imp inh: inconclusive; LANA-H2B inh: 0.6; Vif TR-FRET: -0.6%; Calb FLC: 4.9; Beta2AR agonist: -7.3; HNF4A DNA FP: -4.5

What do the screens show for `CC(=O)OC12CC3CC(C1)C(=NO)C(C3)C2`?
RanGTP-Imp inh: -1.7; LANA-H2B inh: -3.3; Vif TR-FRET: -2.4%; Calb FLC: 3.2; Beta2AR agonist: -1.0; HNF4A DNA FP: -1.9; ALR H2O2 inh: -9.0

How did CC(=O)Nc1ccc(S(=O)(=O)NCC2CCC(C(=O)N3CCCCCC3)CC2)cc1 (centres undefined) do in these assays?
RanGTP-Imp inh: 2.9; LANA-H2B inh: 2.6; Vif TR-FRET: inconclusive; Calb FLC: -11.1; Beta2AR agonist: -2.3; HNF4A DNA FP: 0.4; ALR H2O2 inh: 2.0

Results for O=C1CCN(c2ccccc2)N1 ?
Vif TR-FRET: -1.5%; Beta2AR agonist: 0.6; HNF4A DNA FP: 1.8

How did O=C(CSc1nc2sc3c(c2c(=O)n1-c1ccccc1)CCCC3)NCc1ccco1 do in these assays?
RanGTP-Imp inh: 4.5; Vif TR-FRET: 6.8%; Calb FLC: -2.3; Beta2AR agonist: -2.5; HNF4A DNA FP: 0.9

How did COC(=O)c1ccccc1C(=O)c1ccc2c(c1)NC(=O)CO2 do in these assays?
RanGTP-Imp inh: 3.8; Calb FLC: -7.6; Beta2AR agonist: 1.2; HNF4A DNA FP: -3.4

Results for COC(=O)C1=C(C)N(Cc2ccccc2)C(=NCc2ccc3c(c2)OCO3)N[C@H]1c1ccccc1 ?
LANA-H2B inh: -4.4; Beta2AR agonist: 1.0; HNF4A DNA FP: -1.8; ALR H2O2 inh: -10.9

How did C=CCN1C(=O)[C@]2(c3ccccc31)C1CCCC=C1C(C#N)=C(N)C2(C#N)C#N (some centres undefined) do in these assays?
RanGTP-Imp inh: -0.9; LANA-H2B inh: 6.7; Vif TR-FRET: 7.3%; Calb FLC: 19.0; Beta2AR agonist: 2.6; HNF4A DNA FP: -0.2; ALR H2O2 inh: -19.4

How did CCOC(=O)C1=CC[C@H]2c3c(c4ccccc4n3C)C(=O)C1N2C do in these assays?
LANA-H2B inh: -4.1; Beta2AR agonist: -9.0; HNF4A DNA FP: -4.1; ALR H2O2 inh: 62.3

Results for COc1ccc(CCNC(=O)Cn2nnc(C(=O)Nc3ccc(Br)cc3)c2N)cc1OC ?
RanGTP-Imp inh: -0.6; LANA-H2B inh: 1.4; Vif TR-FRET: -9.3%; Calb FLC: -8.1; Beta2AR agonist: -13.7; HNF4A DNA FP: 4.6; ALR H2O2 inh: 0.6

What do the screens show for `O=C(N[C@@H](Cc1ccc(O)cc1)C(=O)O)c1ccncc1`?
RanGTP-Imp inh: 0.7; LANA-H2B inh: 0.4; Calb FLC: -2.9; Beta2AR agonist: 0.1; HNF4A DNA FP: -3.9; ALR H2O2 inh: -14.5

Results for COc1ccccc1C(=O)N=C1SC2CS(=O)(=O)CC2N1c1ccccc1 (centres undefined) ?
RanGTP-Imp inh: 5.5; LANA-H2B inh: -1.7; Calb FLC: -7.3; Beta2AR agonist: 2.9; HNF4A DNA FP: -2.6

What do the screens show for `CCOC(=O)c1cnc(SCC(=O)Nc2ccc(NC(=O)CC)c(OC)c2)nc1N`?
RanGTP-Imp inh: 7.9; LANA-H2B inh: -1.6; Vif TR-FRET: -4.9%; Calb FLC: 2.3; Beta2AR agonist: -27.8; HNF4A DNA FP: 1.5; ALR H2O2 inh: -4.7

Results for CCOc1ccc(Nc2oc(-c3ccc(Cl)cc3)nc2C#N)cc1 ?
RanGTP-Imp inh: 0.0; LANA-H2B inh: -1.4; Vif TR-FRET: -5.7%; Calb FLC: 47.7; Beta2AR agonist: -6.1; HNF4A DNA FP: -1.4; ALR H2O2 inh: -2.7

Results for O=C(NCc1cn2ccsc2n1)c1cccs1 ?
RanGTP-Imp inh: 1.2; LANA-H2B inh: -2.4; Vif TR-FRET: inconclusive; Calb FLC: -5.1; Beta2AR agonist: 3.1; HNF4A DNA FP: 2.8; ALR H2O2 inh: -8.4

What do the screens show for `COc1ccc(C2CC(c3ccc(Br)cc3)=NN2C(=S)Nc2ccccc2)cc1` (centres undefined)?
RanGTP-Imp inh: -0.4; LANA-H2B inh: 7.2; Vif TR-FRET: -21.1%; Calb FLC: 3.8; Beta2AR agonist: 3.9; HNF4A DNA FP: -2.2; ALR H2O2 inh: -5.7

What do the screens show for `CC(C)CN1CCC(=O)N([C@H](CSc2ccccc2)Cc2ccccc2)CC1`?
RanGTP-Imp inh: -0.7; LANA-H2B inh: 0.5; Calb FLC: -3.0; Beta2AR agonist: 5.0; HNF4A DNA FP: 1.7; ALR H2O2 inh: 3.4

How did Cc1nnc(SCc2cc(=O)oc3ccc4ccccc4c23)n1Cc1ccccc1 do in these assays?
RanGTP-Imp inh: 12.9; LANA-H2B inh: 1.0; Calb FLC: -1.8; Beta2AR agonist: -17.9; HNF4A DNA FP: -1.0; ALR H2O2 inh: -8.8

What do the screens show for `COC(=O)c1ccc(N2CCCCC2)c(N)c1`?
RanGTP-Imp inh: 0.9; LANA-H2B inh: 0.2; Vif TR-FRET: 24.1%; Calb FLC: -9.7; Beta2AR agonist: -0.8; HNF4A DNA FP: -1.5; ALR H2O2 inh: 5.2

How did O=C(NCc1ccc(F)cc1)C1CC(=O)N(C2CCCC2)C1 (centres undefined) do in these assays?
LANA-H2B inh: 3.4; Vif TR-FRET: -7.5%; Beta2AR agonist: -4.6; HNF4A DNA FP: -1.1

Results for COc1ccc(-c2sc3cc4c(cc3c2C#Cc2cncn2C)OCO4)cc1 ?
LANA-H2B inh: 5.6; Beta2AR agonist: 56.4*; HNF4A DNA FP: -3.3; ALR H2O2 inh: 1.1

Results for Cc1cc(C)c(OCCCNC2CCCC2)c(Br)c1 ?
RanGTP-Imp inh: -2.7; LANA-H2B inh: 4.5; Calb FLC: -7.0; Beta2AR agonist: 8.0; HNF4A DNA FP: 0.3; ALR H2O2 inh: -5.7

What do the screens show for `CC1CCCN(C(=O)C2CCN(C(=O)Nc3ccccc3)CC2)C1` (centres undefined)?
LANA-H2B inh: 1.1; Vif TR-FRET: 4.5%; Beta2AR agonist: -0.1; HNF4A DNA FP: -6.8; ALR H2O2 inh: -0.8

Results for Cc1ccc(S(=O)(=O)N2CCC(C(=O)NCC3CC3)CC2)cc1 ?
RanGTP-Imp inh: -4.4; LANA-H2B inh: 1.8; Calb FLC: -5.1; Beta2AR agonist: 7.2; HNF4A DNA FP: 1.1; ALR H2O2 inh: -5.6

Results for COc1ccccc1C(=O)NS(=O)(=O)c1ccc(C)cc1 ?
LANA-H2B inh: -8.4; Beta2AR agonist: 2.3; HNF4A DNA FP: -7.3

What do the screens show for `CC1CCN(c2ccc(NC(=O)c3cccnc3)cc2)CC1`?
RanGTP-Imp inh: -0.9; LANA-H2B inh: 3.7; Vif TR-FRET: 13.6%; Calb FLC: 4.0; Beta2AR agonist: 8.1; HNF4A DNA FP: 12.9; ALR H2O2 inh: 39.1

Results for CCn1c(CNC(=O)C23CC4CC(CC(C4)C2)C3)nnc1SC ?
RanGTP-Imp inh: 0.6; Vif TR-FRET: -1.4%; Calb FLC: -0.2; Beta2AR agonist: 0.6; HNF4A DNA FP: -0.2

How did CCN(C(=O)COC(=O)/C(=C/c1ccccc1)n1nnnc1C)C1CCCCC1 do in these assays?
RanGTP-Imp inh: 4.3; LANA-H2B inh: 1.0; Vif TR-FRET: -7.5%; Calb FLC: 1.6; Beta2AR agonist: 21.6; HNF4A DNA FP: -1.8; ALR H2O2 inh: 7.6

Results for CC(C)(C)CN1CCC(n2nccc2NC(=O)c2ccccc2Cl)CC1 ?
RanGTP-Imp inh: 19.7*; LANA-H2B inh: -1.7; Vif TR-FRET: -6.0%; Calb FLC: -5.5; Beta2AR agonist: 0.1; HNF4A DNA FP: -2.6; ALR H2O2 inh: -2.5

What do the screens show for `Cc1cc2c(C)nc3ccccc3c2o1`?
RanGTP-Imp inh: 1.7; LANA-H2B inh: -1.1; Vif TR-FRET: 0.9%; Calb FLC: -0.7; Beta2AR agonist: 6.8; HNF4A DNA FP: -2.5; ALR H2O2 inh: 0.7

Results for O=C(NNC(=O)C1CCN(S(=O)(=O)c2ccc(Cl)cc2)CC1)c1ccccc1 ?
RanGTP-Imp inh: -2.8; LANA-H2B inh: -4.1; Calb FLC: -6.1; Beta2AR agonist: 2.1; HNF4A DNA FP: 2.9; ALR H2O2 inh: -3.1

What do the screens show for `CC1CC(C)CN(C(=O)c2ccc3c(c2NCCO)C(=O)c2ccccc2C3=O)C1` (centres undefined)?
RanGTP-Imp inh: 0.3; LANA-H2B inh: 3.6; Vif TR-FRET: 32.4%; Calb FLC: 31.0; Beta2AR agonist: -4.9; HNF4A DNA FP: 1.0

What do the screens show for `O=C(Nc1ccc(NC(=O)c2cccs2)c(Cl)c1)c1cccs1`?
RanGTP-Imp inh: -0.1; LANA-H2B inh: -4.5; Calb FLC: 1.1; Beta2AR agonist: -22.9; HNF4A DNA FP: 1.6
